Bioassay records: PubChem, National Center for Advancing Translational Sciences (NCATS)
2A StopGo: FMDV 2A StopGo reporter, luciferase signal; actives 1.2% (n = 410,000); AID 1159524; human cells with a luciferase reporter of 2A StopGo recoding; control for the full effect not named in the record; Potency, µM (doses to about 57.9 µM), for the others: at the top dose signal change, negative = less light; active = well fitted falling curve with a large enough effect; inconclusive = small, poorly fitted or top-dose-only effect; inactive = no such curve, though single readings can be large or run the other way; tested in HEK293T cells; also: % is scaled to controls: 0 for no effect and ±100 for the full control effect; nearly all actives have a fitted effect of over 45% in size; luciferase light after 4 h
MARV entry inh: Marburg virus entry inhibition; Marburg virus pseudotyped entry inhibition, cell reporter; control for the full effect not named in the record; about a third of the inactives were read at about 46 µM; Potency, µM (titrated, usually from 37.8 µM), for the others: at the highest dose activity change, negative = inhibition, usual class: inhibitors; actives 1.8% (n = 300,000); active = well fitted inhibition curve with a large enough effect; inconclusive = small, poorly fitted or top-dose-only effect, or effect the other way; inactive = flat fitted curve, though single readings scatter; tested in HEK293 cells; about a fifth of its hits are not listed in these tables; also: % is scaled to controls: 0 for no effect and ±100 for the full control effect; luciferase read-out
NS1 function inh: inhibitors of influenza NS1 protein function | actives 0.4% (n = 270,000) | S. cerevisiae slowed by influenza A NS1, growth recovery by OD600 | AID 2326 | Potency, µM (highest dose often 46.1 µM), without a hit: top-dose activity, positive = more growth; active means well fitted rising curve with a large enough effect; inconclusive means small, poorly fitted or top-dose-only effect; inactive means no such curve, though single readings can be large or run the other way; also: nearly all actives have a fitted effect of over 50% in size
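OD600 was taken as the measure of yeast growth restored by compound in an NS1-expressing S. cerevisiae strain. Cells had been washed out of glucose medium and diluted 1:100 into galactose -URA medium, pH 6.0.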
Lassa entry inh: blocks Lassa virus binding to or entry into cells. Lassa virus pseudotype entry inhibition, cell reporter; control for the full effect not named in the record. Potency, µM (series often up to 37.9 µM), for the others: at the highest dose activity change, negative = inhibition, hits mostly inhibitors. actives 1.2% (n = 300,000); active means well fitted inhibition curve with a large enough effect; inconclusive means small, poorly fitted or top-dose-only effect, or effect the other way; inactive means flat fitted curve, though single readings scatter; tested in HEK293 cells; also: % is scaled to controls: 0 for no effect and ±100 for the full control effect; nearly all actives have a fitted effect of over 50% in size; luciferase read-out
SARS PLpro yeast: SARS-CoV PLP inhibition in yeast; S. cerevisiae expressing SARS-CoV PLpro, growth rescue; control for the full effect not named in the record; Potency, µM (highest dose often 32.9 µM), for the others: top-dose activity, positive = growth rescue; actives 0.19% (n = 330,000); active means well fitted rising curve with a large enough effect; inconclusive means small, poorly fitted or top-dose-only effect; inactive means no such curve, though single readings can be large or run the other way; also: 0% is about no effect; nearly all actives have a fitted effect of over 55% in size; growth read by luminescence after 48 h
RE007 growth inh: less growth of the S. pombe RE007 Vpr strain; S. pombe RE007 Vpr strain, BacTiter-Glo ATP luminescence, 24 h; control for the full effect not named in the record; Potency, µM (series often up to 92.2 µM), for the others: at the highest dose activity change, negative = less growth; actives 0.21% (n = 360,000); active = well fitted falling curve with a large enough effect; inconclusive = small, poorly fitted or top-dose-only effect; inactive = no such curve, though single readings can be large or run the other way;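 also: % is scaled to controls: 0 for no effect and ±100 for the full control effect; nearly all actives have a fitted effect of over 50% in size; the assay follows cell death caused by Vpr and the record does not say whether a fall means rescue or toxicity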
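Fission yeast strain RE007, carrying one chromosomally integrated HIV-1 vpr copy, was seeded at OD 0.01 in PMG+AL medium with 23 nL pinned compound. After 24 h at 30 °C and 99% humidity, viability was read by BacTiter-Glo luminescence.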
Cruzain inh Det: cruzain (T. cruzi) inhibition with detergent. P25779. Potency, µM, for the others: max response, negative = inhibition, actives largely listed as inhibitors. purified cruzain, Z-FR-AMC fluorescence, 0.01% Triton. AID 1478. actives 0.43% (n = 200,000);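 also: plate controls were neutral wells for no effect and buffer without enzyme for full effect; nearly all actives have a fitted effect of over 40% in size; top concentration of the series not given in the record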
Target sequence (P25779 123-467 limits assumed): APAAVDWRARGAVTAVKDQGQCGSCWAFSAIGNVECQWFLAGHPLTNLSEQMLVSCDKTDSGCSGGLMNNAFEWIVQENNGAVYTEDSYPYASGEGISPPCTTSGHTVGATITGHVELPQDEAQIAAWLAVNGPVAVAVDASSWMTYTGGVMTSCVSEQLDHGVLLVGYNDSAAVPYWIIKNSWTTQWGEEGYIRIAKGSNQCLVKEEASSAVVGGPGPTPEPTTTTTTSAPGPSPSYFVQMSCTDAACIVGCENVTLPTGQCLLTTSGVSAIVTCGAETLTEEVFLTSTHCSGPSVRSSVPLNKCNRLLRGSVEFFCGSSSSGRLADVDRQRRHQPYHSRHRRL
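Purified cruzain (1.5 nM final) was preincubated with compounds for 15 min at room temperature in 100 mM sodium acetate pH 5.5, 5 mM DTT, 0.01% Triton X-100. Reaction started with 2 uM Z-FR-AMC; AMC fluorescence change over 60 s gave activity.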
Cruzain noTriton: cruzain (T. cruzi) inhibition without detergent | purified cruzain, Z-FR-AMC fluorescence, no detergent | Potency, µM, for the others: max response, negative = inhibition, most hits filed as inhibitors | actives 2.3% (n = 200,000) | AID 1476;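 also: plate controls were enzyme without inhibitor for no effect and buffer without enzyme for full effect; nearly all actives have a fitted effect of over 40% in size; top concentration of the series not given in the record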
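Purified cruzain at 1.5 nM, pre-incubated 15 min with compound at room temperature in 100 mM sodium acetate pH 5.5, 5 mM DTT, 0.00005% Triton X-100. Reaction started with 2 uM Z-FR-AMC; AMC fluorescence increase over 60 s gives rate.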
The depositor's hits bear a star; ? = inconclusive; / = no result given; [ ] = another dose, or the depositor's remark. Unless noted, calls follow the shape of the dose curve; as a rule, active = well fitted curve in the direction sought with a large enough effect; inconclusive = small, poorly fitted or top-dose-only effect, or another doubt; inactive = no such curve, though single readings can be large; an effect the other way counts as inactive or inconclusive. Potency is read from the fitted curve at half-maximal effect.

SMILES | 2A StopGo | MARV entry inh | NS1 function inh | Lassa entry inh | SARS PLpro yeast | RE007 growth inh | Cruzain inh Det | Cruzain noTriton
Cc1ccccc1C(=O)NC(C)C(c1cccs1)N1CCOCC1 (stereo not given) | -28.1% | / | -11.4% | / | 5.9% | 0.2% | -2.1% | 8.2%
CCOC(=O)C1CCC(CN(Cc2c(Cl)cccc2Cl)S(=O)(=O)c2ccc(Cl)cc2)CC1 (stereo not given) | -12.7% | / | / | -13.0%[46.1 µM] | / | / | 1.0% | 2.6%
CC(=O)C1=C(O)C(=O)N(c2ccc(O)cc2)C1c1ccc(F)cc1 (stereo not given) | -9.6% | / | 9.4% | / | 1.6% | 4.9% | / | /
CC(=O)N1c2ccc(S(=O)(=O)N3CCC(C(=O)Nc4cccc(C(F)(F)F)c4)CC3)cc2CC1C (stereo not given) | ? | / | 13.4% | / | -3.6% | 6.0% | / | /
CCCOc1ccc(CN(CCO)CCO)cc1[N+](=O)[O-] | 3.9% | 11.8% | 20.4% | -15.6% | -16.0% | -1.3% | 1.2% | -11.7%
CCOC(=O)c1ccc(NC(=O)CSc2nnc(Cc3cccs3)n2C)cc1 | -10.3% | 15.8% | -34.4% | 11.2% | -5.3% | 1.1% | 4.3% | 1.2%
Cc1ccc(Cn2c(=O)cc(C(=O)O)c3ccccc32)cc1 | -6.8% | 6.8% | 4.8% | -6.4% | 3.0% | 2.2% | 1.6% | -1.5%
COCC(=O)N(CCc1ccc(OC)c(OC)c1)Cc1nc2ccccc2c(=O)[nH]1 | 34.5%[activator] | 1.4% | 1.7% | 0.7% | -4.6% | 7.4% | 5.1% | 2.3%
Cc1ccccc1-n1nnnc1SCCCC(=O)c1ccc(F)cc1 | 0.0% | 0.1% | 0.8% | ? | -15.6% | 24.1% | -5.8% | 4.2%
CCOC(=O)c1sc(-c2cccc([N+](=O)[O-])c2)cc1N | 27.0% | -14.1%[46.1 µM] | 11.0% | -5.9% | -4.0% | -0.5% | / | /
Cc1cccc(-n2c(=O)c3c4c(sc3n3c(=S)[nH]nc23)CCC4)c1 | 17.0% | 5.3%[46.1 µM] | / | -2.3%[46.1 µM] | 3.4% | 5.6% | / | /
CCOc1ccc(N(CC(=O)NC2CCCCC2)C(=O)CCC(=O)Nc2nc(C)cs2)cc1 | 18.7% | ? | 14.4% | -26.5%[46.1 µM] | 1.2% | -6.6% | / | /
CC(C)c1ccc(NC(=O)C(c2ccc3c(c2)OCO3)N2CCC3(CC2)OCCO3)cc1 (stereo not given) | 2.5% | ? | -51.2% | ? | -1.0% | -9.8% | -4.8% | 7.2%
COc1ccc(C(=O)Nc2nnc(S(=O)(=O)N3CCN(c4ccc(F)cc4)CC3)s2)cc1 | 5.2% | / | / | 11.3%[46.1 µM] | / | / | -0.5% | -24.5%
COc1ccc(OC)c(CCNC(=O)CCCC(=O)n2ncc3cc(C)ccc32)c1 | -17.2% | / | -21.4% | / | -1.0% | -4.4% | / | /
O=C(NCCc1ccccc1)C(=O)NCC(c1ccco1)S(=O)(=O)c1ccccc1 (stereo not given) | ? | / | / | -2.1%[46.1 µM] | / | / | 0.0% | -1.8%
Nc1nnc2c(n1)CCCC2 | -21.7% | 6.9% | 5.3% | 7.1% | 3.2% | 4.1% | -19.6% | -11.6%
COc1cccc(N2CCN(C(=O)c3cc4c(=O)n(Cc5cccnc5)ccc4nc3C)CC2)c1 | -4.3% | / | / | 1.4%[46.1 µM] | / | / | -2.6% | 9.0%
Cc1cccc(/C=C2\Sc3ccc(C(=O)N4CCC(C(N)=O)CC4)cc3N(C)C2=O)c1 | 19.4% | / | 11.4% | / | -3.6% | -1.6% | / | /
CCc1ccc(OCC(=O)NC(=S)Nc2cccc(CO)c2)c(Br)c1 | / | 13.6% | -7.6% | 8.1% | -0.4% | -1.3% | -9.9% | ?
O=C(Nc1cccc(S(=O)(=O)NC2=NCCC2)c1)c1ccccc1OC(F)F | 29.4% | -8.1% | / | -3.3% | -1.7% | -13.8% | / | /
CCN(CC)C(C(=O)Nc1ccc(C(C)C)cc1)c1ccc2c(c1)OCO2 (stereo not given) | -23.6% | ? | -16.2% | ? | 6.2% | -2.4% | 4.2% | -1.8%
COCCN1Cc2cccc(C(=O)Nc3ccc4c(c3)OCCO4)c2C1=O | 14.7% | / | -18.0% | / | 7.8% | 9.2% | -3.2% | 10.8%
C=CCn1c(SCC(=O)NC2CCCC2)nnc1-c1cccnc1 | -9.6% | -1.3%[46.1 µM] | -0.8% | 7.8%[46.1 µM] | -3.2% | -1.1% | / | /
Cc1cccc(NC(=O)CSc2nc3ccc(N4C(=O)c5ccccc5C4=O)cc3s2)c1C | 16.7% | -0.2% | 7.8% | -3.2% | 4.1% | -10.1% | -6.0% | ?
Cc1ccc2c(C)c(C(=O)N(Cc3ccc(F)cc3)C3CCS(=O)(=O)C3)oc2c1 (stereo not given) | -4.6% | ? | -15.1% | ? | -5.7% | 5.3% | / | /
COc1ccc(F)cc1C(=O)C1CCCN(C(=O)c2cccc(N(C)C)c2)C1 (stereo not given) | 4.1% | / | 4.3% | / | 0.8% | -1.1% | / | /
N#Cc1ccccc1NC(=O)C(=O)NCC(c1ccc2c(c1)OCO2)N1CCOCC1 (stereo not given) | -1.1% | / | / | -25.6%[46.1 µM] | / | / | -1.0% | -3.4%
CCOC(=O)c1cn(-c2ccc(F)c(F)c2)c2c(F)c(F)c(F)c(F)c2c1=O | / | 4.5% | 25.2% | / | -2.8% | / | -6.3% | -10.4%
CC(C)(C)OC(=O)N1Cc2ccccc2C[C@H]1C(=O)NCC(=O)NC1CCCCC1 | 16.1% | / | 3.4% | / | 0.1% | 4.6% | / | /
COc1ccc(Cl)cc1NC(=O)CN(C)C(=O)c1ccc(OCc2ccccc2)c(OC)c1 | -8.1% | ? | / | 1.5% | -6.9% | 5.5% | / | /
COc1ccccc1N(CC(=O)N/N=C/c1ccc(OCC(=O)NCc2ccco2)cc1)S(=O)(=O)c1ccc(C)cc1 | -24.7% | ? | 6.6% | ? | 1.8% | -6.8% | 2.6% | -9.6%
CCOc1ccc2ncc3c(-c4ccc(C)cc4)nn(-c4cccc(F)c4)c3c2c1 | -10.6% | 3.8%[46.1 µM] | / | 17.5%[46.1 µM] | / | / | 0.7% | -3.9%
CC(C)c1nc2cc(C(=O)N3CCN(c4cnccn4)CC3)ccc2o1 | 4.7% | 8.1% | 4.1% | 15.1% | -7.6% | 6.8% | / | /
CC(C)c1ccc(C2c3[nH]c4ccccc4c3C[C@H]3C(=O)N(c4ccccc4C(=O)N4CCC[C@@H]4C(=O)O)C(=O)N23)cc1 (stereo not given in full) | -7.4% | / | 11.1% | / | 3.8% | 10.2% | / | /
CC(C)C(=O)Nc1ccc2nc(SCC(=O)N3CCCC3)sc2c1 | -11.7% | 2.5%[46.1 µM] | / | -0.3%[46.1 µM] | / | / | -3.6% | -6.3%
CCOC(=O)N1CCN(S(=O)(=O)c2ccc(OCC(=O)OC)c(Cl)c2)CC1 | -5.1% | -4.0% | -2.4% | 14.5% | 0.6% | -7.6% | 4.2% | 6.7%
Cc1ccc(NC(=O)N2CCCN(C(=O)OC(C)(C)C)CC2)cc1Cl | -20.7% | -6.6%[46.1 µM] | 1.8% | -0.9%[46.1 µM] | 3.8% | -8.4% | / | /
CCN(CC(=O)Nc1ccccc1C(F)(F)F)C(=O)C1=COCCO1 | 4.6% | -17.7% | / | ? | -3.6% | -2.4% | / | /
CCCc1c(C)[nH]c2ccccc2c1=O | -10.3% | 4.1% | -58.8% | -1.2% | -26.7% | 2.4% | 4.7% | -0.5%
COc1ccccc1NC(=O)N1CCN(Cc2nc3ccc(C)cc3o2)CC1 | -12.1% | / | / | -25.4%[46.1 µM] | / | / | -0.7% | 0.1%
Cc1ccc(C(=O)NCC(c2cccnc2)N2CCc3ccccc32)cc1C (stereo not given) | ? | / | / | 5.6%[46.1 µM] | / | / | 0.0% | ?
Cc1cc(C)n(C(=O)CN2C(=O)CCC2=O)n1 | -18.8% | 0.0% | -1.9%[9.22 µM] | -10.3% | 5.6% | 4.3% | 2.7% | -3.5%
COc1ccc(CN(C(=O)/C=C/C(=O)c2ccc(OC)cc2O)C(C(=O)NC2CCCCC2)c2ccncc2)cc1 (stereo not given) | 1.8% | ? | -5.2% | ? | -42.3% | -8.9% | -8.0% | ?
Cn1c(SCC(=O)NCc2ccccc2)ncc(C(=O)Nc2ccccc2)c1=O | 0.0% | 0.1% | / | 4.0% | -8.2% | -6.5% | / | /
COc1ccccc1CCN=C(N)NS(=O)(=O)c1cc(F)ccc1F | -5.0% | -0.4%[46.1 µM] | -0.4% | ? | -1.9% | 6.0% | / | /
O=C(Oc1cccc(Nc2ncnc3ccccc23)c1)c1cccnc1 | -13.8% | 10.7%[46.1 µM] | -5.3% | 21.8%[46.1 µM] | 0.6% | -7.7% | / | /
COc1ccc(NC(=O)NNC(=O)CCc2ccc(O)c(O)c2)cc1OC | -14.7% | -16.9% | -6.4% | 13.8% | -2.9% | -2.5% | / | /
COc1ccc(CN2CCN(CCc3ccccc3)C(CCO)C2)c(O)c1 (stereo not given) | -21.3% | 9.1%[46.1 µM] | 3.8% | 6.7%[46.1 µM] | -1.4% | 2.9% | / | /
Cc1cc(CNC(=O)C2CCC(=O)N(Cc3ccccc3F)C2)nn1C (stereo not given) | -13.0% | 16.6% | 10.2% | 10.8% | -0.8% | 54.3% | / | /
COc1ccc(N2CCN(c3ccc(C(=O)O)cc3[N+](=O)[O-])CC2)cc1 | -6.7% | 7.7%[46.1 µM] | -3.5% | ? | 0.6% | 4.3% | / | /
NC(=O)C1CC(=O)N(c2ccc(OCC(=O)N3CCCC3)cc2)C1 (stereo not given) | -6.2% | 6.7%[46.1 µM] | / | -8.1% | / | 6.0% | / | /
